VACV mCherry inh: qHTS for Stage-Specific Inhibitors of Vaccinia Orthopoxvirus: mCherry Reporter Primary qHTS. Potency, µM (doses to about 36.5 µM), inactives show at the highest dose activity change, negative = inhibition, hits mostly inhibitors. Vaccinia virus mCherry reporter infection, fluorescence; about a quarter of the inactives have no number. 0.63% of 310,000 active; active = well fitted inhibition curve with a large enough effect; inconclusive = small, poorly fitted or top-dose-only effect; inactive = no such curve, though single readings can be large or run the other way; tested in A549 cells; also: nearly all actives have a fitted effect of over 35% in size; inactives centre near -10
Vaccinia Venus: qHTS for Stage-Specific Inhibitors of Vaccinia Orthopoxvirus: Venus Reporter Primary qHTS. Vaccinia virus Venus reporter expression, fluorescence. AID 720580, 2013. Potency, µM (highest dose often 36.5 µM), inactives show at the top dose activity change, negative = inhibition, usual class: inhibitors. 0.46% of 330,000 active; active means well fitted inhibition curve with a large enough effect; inconclusive means small, poorly fitted or top-dose-only effect; inactive means no such curve, though single readings can be large or run the other way; tested in A549 cells; also: nearly all actives have a fitted effect of over 30% in size; inactives centre near -10
* marks the source's active call; other numbers are inactive results; i = inactive; ? = inconclusive; . = no result given; [ ] = dose if it differs, or a comment. % is scaled to controls: 0 for no effect and ±100 for the full control effect; potency is read from the fitted curve at half-maximal effect. An unsorted share of the library. Share with any hit: about 0.87%.

Values run as follows: VACV mCherry inh | Vaccinia Venus
> Cc1ccc(S(=O)(=O)N(C)CCCC(=O)Nc2cccc3ccccc23)cc1
  i | -6%
> CSCCC(NC(=O)c1ccccc1Cl)C(=O)N1CCCC(C)C1 (configuration not stated)
  -4% | -14%
> CC(=O)N1CCCc2cc(S(=O)(=O)N3CCCC(C(=O)N4CCN(c5cccc(Cl)c5)CC4)C3)ccc21 (configuration not stated)
  ? | ?
> CC(=O)Nc1sc(NC(=O)c2ccc(C)cc2)nc1-c1cccs1
  -13% | -15%
> CCN1C(=O)NC(=O)/C(=C/c2cc(C)n(-c3sc(C)c(C)c3C#N)c2C)C1=O
  i | -4%
> C/C(CC(=O)Nc1cc(C)cc(C)c1)=N\NC(=O)c1ccccn1
  i | -11%
> O=C(NNC(=O)c1ccccc1Cl)c1ccco1
  -2% | 0%
> O=C(c1ccc2c(c1)OCO2)N(Cc1cc2ccc(F)cc2nc1N1CCC(O)CC1)CC1CCCO1 (configuration not stated)
  12% | 38%[activator]
> COc1ccc(-c2csc(NC(=O)COC(=O)c3ccco3)n2)cc1
  -8% | -16%
> CSc1nc(Nc2cccc(C)c2)c(C#N)c(-c2ccccc2)n1
  -13%[7.34 µM] | -7%[7.34 µM]
> Clc1ccc(SCCN2CCNCC2)cc1
  -5% | -12%
> CCCNCC(O)Cn1c2ccccc2n2c(=O)cc(C)c(C#N)c12 (configuration not stated)
  1% | -6%
> COc1ccc(-c2ccc(SCC(=O)Nc3cc(C)on3)nn2)cc1OC
  -19% | -10%
> C/C(NCCc1ccc(O)cc1)=C1/CCOC1=O
  i | -15%
> CCN1CCN(C(=O)c2ccc(CN(c3ccc(C)c(C)c3)S(C)(=O)=O)cc2)CC1
  -1% | 3%
> Cc1sc2ncnc(SCC(=O)c3ccc(O)cc3O)c2c1C
  -10% | 0%
> C[C@H]1CC[C@@]2(O[C@H](CCO)C[C@@H](O)[C@@H]2O)O1
  i | -11%
> COc1cccc(CC(=O)Nc2nc(-c3ccc(OC)c(OC)c3)cs2)c1
  ? | -14%
> Cc1csc(SCC(=O)NC(C)C2CC3CCC2C3)n1 (configuration not stated)
  -19% | -11%
> COc1ccc(-c2oc3ncn4nc(-c5ccc(Cl)cc5)nc4c3c2-c2ccc(OC)cc2)cc1
  -9% | -6%
> CCCn1nc(C(=O)OCC(=O)c2c(N)n(C)c(=O)n(C)c2=O)c2ccccc2c1=O
  -11% | -9%
> CN(CCc1cnn(C)c1)Cc1cn(C)nc1-c1ccc2c(c1)OCCO2
  i | -5%
> Cc1ccc(NC(=O)/C=C/c2ccc(S(=O)(=O)N3CCOCC3)cc2)cc1S(=O)(=O)N(C)C
  ? | ?
> COc1ccc(S(=O)(=O)NC(C)C(=O)NCc2cccnc2)cc1OC (configuration not stated)
  -5% | -16%
> Clc1ccccc1-c1nn2c(-c3ccncc3)nnc2s1
  -21% | -26%
> Cc1ccc(Cn2c(=N)c(C(=O)NCc3ccco3)cc3c(=O)n4ccccc4nc32)cc1
  11% | 11%
> Cc1ccc(S(=O)(=O)Nc2ccccc2/C=N/c2nc3ccccc3n2C(C)C)cc1
  -16% | 2%
> COC(C/C=C/[C@@H](O)COCc1ccccc1)OC
  i | 2%
> O=C(NCCc1ccccc1)c1cc([N+](=O)[O-])ccc1N1CCOCC1
  i | -12%
> S=C1NC[C@H](Cc2ccccc2)N1CC1CCN(CCCCc2ccccc2)CC1
  i | -18%
> COc1ccccc1C(=O)NCCC(=O)NNC(=O)C1COc2ccccc2O1 (configuration not stated)
  i | -18%
> OCc1ccc(O)c2ncccc12
  . | ?
> CCN(CC)CCNC(=O)c1ccc(Sc2ccc(C)cc2)c(NC(C)=O)c1
  -8% | -10%
> COc1ccccc1CNC(=O)c1ccc2c(c1)nc(C)n2-c1ccccc1OC
  -15% | 3%
> O=C(NNC(=S)NC(=O)c1sc2ccccc2c1Cl)c1ccc(Cl)cc1
  -18% | -10%
> C[C@@H](C(=O)OCC(=O)Nc1cc(S(=O)(=O)N2CCOCC2)ccc1Cl)N1C(=O)C2CCCCC2C1=O (some centres not stated)
  i | -2%
> CCN(CC)c1nc2c(-c3cccc(Br)c3)nnn2c2ccccc12
  0% | -11%
> COc1cc(NC(=O)c2cc3ccc4cccnc4c3[nH]2)cc(OC)c1OC
  -20% | -11%
> C=CCN1CN(CCc2ccccc2)CNC1=S
  -4% | -6%
> NC(=S)c1ccc[n+]([O-])c1
  ? | ?
> CC(NC(=O)c1ccco1)c1nc(-c2ccc(C(C)(C)C)cc2)no1 (configuration not stated)
  -19% | -1%
> COCCCNC(=O)CC(NS(=O)(=O)c1ccc(F)cc1)c1ccc(OC)cc1 (configuration not stated)
  -13% | -6%
> O=C(NCCO)C1CCN(C(=O)c2ccc(-c3ccccc3)cc2)CC1
  -7% | -19%
> N#Cc1c(-c2ccc(Cl)cc2)cc(-c2cccs2)nc1SCC(=O)O
  i | 6%
> Cc1c(OCc2ccccc2)c(=O)ccn1Cc1ccc(Cl)cc1
  . | ?
> O=C(OCCn1cncn1)c1cc2ccccc2oc1=O
  -8%[1.46 µM] | -7%
> Cc1ccccc1NC(=O)NCC1CCCO1 (configuration not stated)
  . | 2%
> C/C(Cl)=C/CSc1nn2c(=O)c3ccccc3nc2s1
  i | -5%
> CCC(C)NC(=O)Nc1ccc(Br)cc1Cl (configuration not stated)
  -11% | -14%
> COCC1CCCN(Cc2nc(Cc3ccccc3)no2)C1 (configuration not stated)
  -20% | -11%

Following part
Values run as follows: VACV mCherry inh | Vaccinia Venus
> CCN(CC)S(=O)(=O)c1ccc(/C=C/C(=O)Nc2ccccc2N2CCOCC2)cc1
  -16% | -16%
> NS(=O)(=O)c1ccc(CCNC(=O)Cc2ccc(S(=O)(=O)N3CCCC3)s2)cc1
  i | -8%
> CC[C@@H](C)[C@@H]1CN([C@@H](C)CN2CCC[C@H]2CN2C(N)=NC[C@H]2C(C)C)C(=N)N1CCc1ccc(Cl)c(Cl)c1
  -12% | ?
> Cc1ccc(NC(=O)COC(=O)c2ccn(C)n2)cc1
  i | -14%
> COC(=O)CSc1nnc(CNC(=O)c2cc(OC)c(OC)c(OC)c2)n1C
  i | -5%
> Cc1cc(C)c(OCC(=O)Nc2ccc(NC(=O)c3ccco3)cc2)c([N+](=O)[O-])c1
  -19% | -9%
> O=C(CSc1nc(=O)n(CCCN2CCOCC2)c2c1CCCC2)Nc1ccc(F)cc1
  -16% | -18%
> COc1ccccc1N(CC(O)COc1c(C)cc(C)cc1C)S(=O)(=O)c1ccccc1 (configuration not stated)
  -25% | -30%
> NC(=O)CC(NC(=O)c1ccccc1)c1ccc(NCCOc2ccccc2)c([N+](=O)[O-])c1 (configuration not stated)
  -26% | -28%
> Cc1nc2c(C(=O)N3CCC4(CC3)OCCO4)cnn2c(C)c1Cc1cccc(Cl)c1
  i | -19%
> C=C(C)[C@@H]1C2=CC(C(=O)OC)=C(C[C@@H](C(=C)C)[C@H]3O[C@H]3C3=C[C@H]1OC3=O)O2
  -10% | ?
> O=C(Nc1ccnn1C1CCN(C(=O)c2cccc(C(F)(F)F)c2)CC1)C1CC1
  -22% | -15%
> Cc1ccccc1CS(=O)(=O)CCC(=O)NCc1ccccn1
  . | -4%
> CCc1noc(C)c1C(=O)N1CCOc2ccc(CN3CCCC(C(=O)c4cccnc4)C3)cc2C1 (configuration not stated)
  -4% | -17%
> COc1ccc(-c2cn(-c3ccc(SC(F)F)cc3)c3[n+]2CCC3)cc1OC
  -9% | -6%
> Cc1ccccc1NC(=O)CSc1nc(O)cc(=O)n1C
  -8% | -9%
> COc1ccc(S(=O)(=O)N2CCN(c3ncccn3)CC2)cc1OC
  -7% | -17%
> N#Cc1ccc(NC(=S)Nc2ccccc2)cc1
  -13% | -6%
> COc1ccc(Br)cc1CNC(=O)c1ccc2c(c1)nc1n2CCC(C)C1 (configuration not stated)
  -21% | -12%
> CC(CNC(=O)C1CCN(Cc2cc3ccccc3n2Cc2ccccc2)CC1)c1ccccc1 (configuration not stated)
  -19% | -9%
> Cc1cccc2nc(CNC(=O)CN3Cc4cc(Cl)ccc4OC(C)C3)cn12 (configuration not stated)
  -11% | 0%
> O=C(C1CCCO1)N1CCN(C(=S)Nc2cccc(F)c2)CC1 (configuration not stated)
  -16% | -13%
> Cc1ccc(OCc2ccc(C(=O)NCc3cccnc3)cc2)cc1C
  -14% | -14%
> COc1ccc2nc(SCC(=O)Nc3cc(C)on3)c(C#N)cc2c1
  i | -4%
> CCc1ccc(NC(=O)c2cc3nc(-c4ccc(C)cc4)cc(C(F)(F)F)n3n2)cc1
  -6% | -16%
> Cc1ncc2c(c1CNS(=O)(=O)c1cccs1)CCN(C(=O)/C=C/c1cc(F)cc(F)c1)C2
  -20% | -12%
> O=c1ccnc(NCCc2ccccc2)[nH]1
  . | -15%
> CC(NC(=O)c1cc(Br)ccc1Cl)c1ccccc1 (configuration not stated)
  -8% | -21%
> CSCCC(/C(O)=C(\C#N)c1nc2ccccc2[nH]1)N1C(=O)c2ccccc2C1=O (configuration not stated)
  . | 2%
> O=C(CCS(=O)(=O)c1nc(-c2cccs2)cc(C(F)(F)F)n1)Nc1ccc(F)c(Cl)c1
  -23%[7.34 µM] | -16%[7.34 µM]
> CCN1CCN(CCc2nc3cc(NC(=O)COc4ccccc4)ccc3n2C)CC1
  i | -3%
> O=C(Nc1c(C(=O)N2CCOCC2)cnn1-c1ccccc1)c1ccc(F)cc1
  -1% | -18%
> O=C(c1cc2c(Cl)nc3ccccc3c2s1)N1CCCCC1
  0% | -11%
> CC/C=C\C/C=C\C/C=C\C/C=C\C/C=C\C/C=C\CCC(=O)O
  -21%[3.33 µM] | -10%[3.33 µM]
> CCc1nc2c(OCc3ccc(Cl)cc3Cl)cccn2c1N(C=O)Cc1ccc(OC)cc1
  15% | -9%
> NC(=O)c1cc(Cl)ccc1OCC(=O)N1CCCc2ccccc21
  -14% | -17%
> Cn1c(N)c(C(=O)COC(=O)CSc2ccc(Cl)cc2)c(=O)n(C)c1=O
  -15% | -13%
> O=C(NCCCN1C(=O)c2ccccc2C1=O)OCc1ccccc1
  -17% | -9%
> O=C(CCC1N=C2c3ccccc3N=C(SCc3ccccc3Cl)N2C1=O)NCc1cccs1 (configuration not stated)
  -18% | -13%
> Cn1c(=O)c2nncnc2n(C)c1=O
  i | -8%

The final 5 compounds of the part before are carried over, then new ones follow:
Values run as follows: VACV mCherry inh | Vaccinia Venus
> NC(=O)c1cc(Cl)ccc1OCC(=O)N1CCCc2ccccc21
  -14% | -17%
> Cn1c(N)c(C(=O)COC(=O)CSc2ccc(Cl)cc2)c(=O)n(C)c1=O
  -15% | -13%
> O=C(NCCCN1C(=O)c2ccccc2C1=O)OCc1ccccc1
  -17% | -9%
> O=C(CCC1N=C2c3ccccc3N=C(SCc3ccccc3Cl)N2C1=O)NCc1cccs1 (configuration not stated)
  -18% | -13%
> Cn1c(=O)c2nncnc2n(C)c1=O
  i | -8%
> CC(=O)N1CCN(c2ccc(N=Cc3c(O)n(-c4ccc(Cl)cc4)c(=O)[nH]c3=O)cc2)CC1
  . | -6%
> CN(CC(=O)Nc1ccc(F)cc1)C(=O)CN1C(=O)NC(CCc2ccccc2)C1=O (configuration not stated)
  -10% | -5%
> COc1cccc(C2(C#N)CCN(C)CC2)c1
  i | -8%
> O=C(c1cnc2nc3ccccc3n2c1)c1cc(F)ccc1O
  -20% | 9%
> C=CCn1c(CNc2ccccc2)nnc1SCC(=O)N/N=C/c1ccccc1O
  . | -54%
> COc1ccc(N2CCN(C(=O)c3noc4c3CCCCC4)CC2)cc1
  -9% | -22%
> CN(C)C(=O)CSc1nnc(-c2ccc(S(=O)(=O)N3CCCC3)cc2)n1C
  -12% | -12%
> COc1ccc(OC)c(N=Nc2c(O)c3ccccc3[nH]c2=O)c1
  ? | 14%
> Cc1ccc(C(=O)CSc2nsc(C)c2C#N)cc1
  . | -18%
> COC(=O)CCc1c(C)[nH]c(=S)[nH]c1=O
  -11% | -5%
> Cc1ncc(S(=O)(=O)c2ccc(Cl)cc2)c(-c2ccccc2)n1
  . | -6%
> COCCCNC(=O)CC(NS(=O)(=O)c1ccc(Cl)cc1)c1ccc(OC)cc1 (configuration not stated)
  -1% | -10%
> Cc1ccc(S(=O)(=O)Cn2nnnc2C(C(C)C)N2CCN(C(=O)c3ccco3)CC2)cc1 (configuration not stated)
  i | -11%
> CC[C@]12c3[nH]c4cc(-c5ccco5)ccc4c3CCN1C(=O)[C@@H](CC(=O)NCCC1=CCCCC1)C[C@@H]2C(=O)N1CCN(C(=O)C2CC2)CC1
  -28% | ?
> C/C(=N\Nc1ccccc1C)c1cccnc1
  -16% | -5%
> COc1ccc(C2CC(c3cccs3)=NN2c2nc(C)c(C(C)=O)s2)cc1OC (configuration not stated)
  -24% | -18%
> Cc1cc(C)c(S(=O)(=O)/N=C2/C=C(Sc3ncn[nH]3)C(=O)c3ccccc32)cc1C
  ? | 6.3µM*
> Cc1ccc(OCc2nnc(SCC(=O)Nc3ncc(C)s3)o2)cc1
  i | -13%
> O=C(CCNC(=O)c1ccc(Cl)cc1)Nc1ncccc1O
  i | -29%
> CCOC(=O)[C@]12CCCC=C1N(CCC1=CCCCC1)C(=O)[C@H](CC(=O)NCc1cccc3ccccc13)C2
  -2% | -18%
> CCNS(=O)(=O)c1ccc(CCC(=O)NCc2ccc(C)cc2)cc1
  -18% | -10%

Screens as filed in PubChem.
